Assay outcomes: PubChem, Fisher Drug Discovery Resource Center
NPYLR7 ag – mosquito NPYLR7 agonism. HEK293T NPYLR7/Galpha15, GCaMP6s calcium fluorescence. activation, % at 10 µM. 270,000 tested, 0.15% active; in the data active = activation above about 40%;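 also: 0% = vehicle and 100% = reference agonist at the receptor; some compounds past the cut are filed as inactive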
NPYLR7 ag max-min – recorded beside NPYLR7 ag, whose call it bears; activation, %; measured here: Max-Min RFU normalised activation; some inactives read as strong as hits;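 span of the calcium signal over five minutes; 0% = vehicle and 100% = native peptide agonist; compound fluorescence can raise it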
The depositor's hits bear a star; & = joins results of further samples. These rows are one share of the data; rates above refer to the full screens.

SMILES | NPYLR7 ag | NPYLR7 ag max-min
CC1(NS(=O)(=O)c2ccccc2F)CCS(=O)(=O)C1 (stereo unspecified) | 4.0 | 2.7
COc1ccc(/C=C2N=C(/C=C/c3ccccc3)OC/2=O)cc1OC(C)=O | 6.3 | 2.7
O=C(NCCN1Cc2ccccc2OC(c2ccccc2F)C1)c1ccc[n+]([O-])c1 (stereo unspecified) | 4.3 | -0.1
O=C(NCc1cccc(NC(=O)N2CCCC2)c1)c1ccc(Cl)cc1 | 4.7 | 5.0
O=C(NCCCn1nc(-c2ccccc2)ccc1=O)Nc1ccc(C(F)(F)F)cc1 | 0.5 | -1.0
Cc1nnc2n1CC(C(=O)Nc1ccc(Cl)cc1NC(=O)c1ccco1)CC2 (stereo unspecified) | 11.0 | 10.2
O=C(NN=Cc1c[nH]c2ccc(Br)cc12)C1CC1 | -1.4 | -1.9
COC(=O)c1cccc(NC(=O)N2CCc3cc(OC)c(OC)cc3C2c2ccccc2)c1 (stereo unspecified) | 21.1 | 10.6
COc1ccc2cc(C(=O)C3CCCN(C(=O)Nc4c(C)cccc4Cl)C3)ccc2c1 (stereo unspecified) | -12.6 | -14.4
O=C(NCCCn1ccc2ccccc21)C1CCC(=O)N(Cc2cccc(F)c2)C1 (stereo unspecified) | 17.1 | 5.3
NC(=O)c1cccc(CC2CCN(C(=O)c3cnc4ccccc4c3)C2)c1 (stereo unspecified) | 0.1 | -0.7
O=C(CSc1nc(=O)n(CCO)c2c1CCC2)NC1CCCCC1 | -2.9 | -11.7
Cc1cc(C(=O)N2CCN(c3ncccc3C(=O)NCc3cccs3)CC2)c(C)o1 | -0.3 | -1.9
COc1ccc(S(=O)(=O)N2CCN(c3nccc(-c4cccs4)n3)CC2)cc1 | -11.0 | -7.9
Cc1cnc(NC(=O)c2ccc(Oc3ccc(F)cc3Br)nc2)s1 | 4.0 | 6.3
Cc1cc(C)c2nc(N(CCn3cccn3)C(=O)c3cccs3)sc2c1 | -12.1 | -16.0
c1cc(-c2nccn2CCn2ccnc2)c2cccnc2c1 | 6.5 | 3.8
Cc1ccc(NCCOc2ccccc2F)cc1-n1cnnn1 | 9.7 | 7.3
COC(=O)[C@@H]1Cc2ncn(Cc3ccc(OC)cc3)c2CN1S(=O)(=O)Cc1ccccc1 | -10.4 | -16.9
CCCS(=O)(=O)NCCNc1ccc(Nc2ccccn2)nn1 | 3.7 | -1.6
Cc1cccc(C(=O)NCC(=O)NC2CC2)c1C | -4.6 | -4.0
COc1cc(OC)cc(C(=O)N2CCN(c3nc(C4CCCCC4)nc4sc5c(c34)CCCCC5)CC2)c1 | -3.0 | 3.4
CC(=O)Nc1ccc(C(=O)N2CCN(Cc3ccc(-c4noc(-c5cccc(C(F)(F)F)c5)n4)cc3)CC2)cc1 | 1.6 | -0.1
O=C(O)[C@H]1C[C@H](C(=O)NCc2cccnc2)CN(Cc2cc3ccccc3o2)C1 | 4.8 | 1.4
COc1ccc(COC(=O)C2=C(C)NC3=C(C(=O)CCC3)C2c2ccc(F)c(F)c2)cc1 (stereo unspecified) | -4.0 | -5.9
COc1ccc(CNC(=O)CCCCn2c(=S)[nH]c3c([nH]c4ccc(OC)cc43)c2=O)cc1 | -6.8 | -12.5
O=C(CSc1nnc(-c2ccccc2)n1-c1ccccc1)N/N=C\c1ccc([N+](=O)[O-])cc1 | -3.9 | 3.7
COc1ccc(-n2c(CNC(=O)c3cccc4ccccc34)n[nH]c2=S)cc1 | -0.7 | -1.3
Cc1cc(NC(=O)C(C)Oc2ccccc2C(F)(F)F)n(C)n1 (stereo unspecified) | -31.9 | -30.3
CCN(CC)CCN(C(=O)c1cc(C)on1)c1nc2ccc(F)cc2s1 | 9.7 | 7.3
O=C(CCc1nc2sc3c(c2c(=O)[nH]1)CCCC3)NC1CCCCCC1 | -0.6 | -2.5
Cc1cc(NC(=O)COc2ccc(F)cc2)n(-c2nc3c(F)cccc3s2)n1 | -4.4 | -10.1
Cc1c(-c2ccc(C(C)N3CCCCC3)cc2)c(=O)n(C)c(=O)n1C (stereo unspecified) | 14.3 | 12.1
COc1ccc2oc(=N)c(C(=O)NCc3ccccc3)cc2c1 | -10.1 | -16.2
CC(C)(C)OC(=O)N1CCOc2ncccc21 | 2.6 | 1.1
O=C(CCc1ccccc1)Nc1cccc(NC(=O)c2cccc(=O)[nH]2)c1 | -1.2 | -4.1
CO[C@H]1CN(S(=O)(=O)c2cn(C)cn2)[C@H]2Cc3c(n(CC(=O)O)c4ccccc34)[C@@H]1C2 | 28.2 | 23.1
Nc1c(S(=O)(=O)c2ccccc2)c2nc3ccccc3nc2n1-c1cccc(S(N)(=O)=O)c1 | 20.6 | 19.2
O=C(CSC1CCS(=O)(=O)C1)N1CCC(Nc2ccccc2Cl)CC1 (stereo unspecified) | 5.7 | 4.6
Nc1sc2c(c1C(=O)NC1CCCCC1)CCCC2 | -0.7 | -1.2

Full records as entered above.
CC(C)(C)OC(=O)N1CCOc2ncccc21 is listed with NPYLR7 ag = 2.6; NPYLR7 ag max-min = 1.1
CO[C@H]1CN(S(=O)(=O)c2cn(C)cn2)[C@H]2Cc3c(n(CC(=O)O)c4ccccc34)[C@@H]1C2 is listed with NPYLR7 ag = 28.2; NPYLR7 ag max-min = 23.1

The results go on.
SMILES | NPYLR7 ag | NPYLR7 ag max-min
O=C(c1ccccc1)N1CCN(CC(O)COCc2ccc3c(c2)OCO3)CC1 (stereo unspecified) | 8.0 | 4.9
CNc1nc(C(=O)N2CCC3(CCCN(C)CC3)CC2)cs1 | -2.7 | -3.3
COc1ccc(CNC(=O)CC(O)(c2nccn2C)C(F)(F)F)cc1 (stereo unspecified) | 8.7 | 4.4
Cc1nn(-c2ccc(Cl)cc2)c(C)c1CNCCS(C)(=O)=O | 12.0 | 8.7
CCOC(=O)N1CCC(Nc2nc(-c3cccnc3)nc3c2CCNC3)CC1 | 4.4 | 2.1
COCCN(CC(=O)N(CCc1c[nH]c2ccccc12)Cc1ccc(F)cc1)C(=O)c1ccc(Br)cc1 | -2.7 | -1.4
CNCC#CCOc1c(C)ccc(C)c1C | -10.3 | -16.0
CN(C(=O)CCc1nnc(C2(c3ccc(Cl)cc3)CCC2)o1)C1CCOC1 (stereo unspecified) | -11.8 | -10.1
COc1ccc(CNC(=O)CCC2CCCN(C(=O)c3ocnc3C)C2)c(OC)c1 (stereo unspecified) | 3.8 | 0.3
Cc1c(C(=O)NCC(F)(F)F)sc(=O)n1CC(=O)N(C)C | 11.4 | 7.6
CCN(CCN1C(=O)CSC1c1ccc(F)cc1F)C(=O)c1cccc(F)c1 (stereo unspecified) | -3.5 | 0.3
CCC(=O)Nc1nnc(SCc2cc(=O)c(OC(=O)c3ccc4ccccc4c3)co2)s1 | 1.6 | -0.8
O=C(Nc1ccccc1-c1cccnc1)C1CC1 | -1.6 | -3.7
CC(C)(C)NC(=O)N1CCC(CN2C(=O)CSC2c2ccccc2F)CC1 (stereo unspecified) | 28.5 | 18.1
Cc1cccc(Cn2nc(-c3ccccc3)c3sc(N4CCOCC4)nc3c2=O)c1 | -3.8 | -8.6
CCN(CCn1cccn1)C(=O)CC1C(=O)NCCN1Cc1cccs1 (stereo unspecified) | -1.1&7.0 | -3.0&2.3
Cc1cc(N2CCCS2(=O)=O)ccc1C(=O)Nc1ccsc1 | -20.2 | -20.7
Cc1ccc(N2C(=O)N(c3cccc(Br)c3)C3CS(=O)(=O)CC32)cc1 (stereo unspecified) | -2.3 | -6.9
CN1C(=O)CC2(C1=O)C(=O)N(CCCN1C(=O)c3ccccc3C1=O)c1ccc(F)cc12 (stereo unspecified) | 7.5 | -2.8
O=C(Oc1coc(CSc2ncccn2)cc1=O)c1cccc(C(F)(F)F)c1 | -13.3 | -5.2

An excerpt from above in order of molecular weight, rising.
SMILES | NPYLR7 ag | NPYLR7 ag max-min
CCN(CCn1cccn1)C(=O)CC1C(=O)NCCN1Cc1cccs1 (stereo unspecified) | -1.1&7.0 | -3.0&2.3
O=C(Oc1coc(CSc2ncccn2)cc1=O)c1cccc(C(F)(F)F)c1 | -13.3 | -5.2
Cc1cccc(Cn2nc(-c3ccccc3)c3sc(N4CCOCC4)nc3c2=O)c1 | -3.8 | -8.6
Cc1ccc(N2C(=O)N(c3cccc(Br)c3)C3CS(=O)(=O)CC32)cc1 (stereo unspecified) | -2.3 | -6.9
CCC(=O)Nc1nnc(SCc2cc(=O)c(OC(=O)c3ccc4ccccc4c3)co2)s1 | 1.6 | -0.8

Following part:
SMILES | NPYLR7 ag | NPYLR7 ag max-min
CCOC(=O)CNC(=O)c1c(F)c(F)c(F)c(F)c1F | -1.4 | -4.2
CCOc1ccc(C2NC(=O)NC(C)=C2C(=O)OCC(C)C)cc1 (stereo unspecified) | -3.0 | -4.8
COc1ccc2[nH]c(C(=O)N(C)Cc3cnccn3)c(C)c2c1 | -0.1 | 6.3
C=CCOC(CN1CCN(C(=O)c2cccnc2Cl)CC1)c1cccc(OC)c1 (stereo unspecified) | -3.0 | 8.9
Cc1c(C(=O)N2CCN(S(=O)(=O)c3cc(F)ccc3F)CC2)cnn1-c1ccccc1 | 0.2 | 0.1
COc1ccc(CC(=O)N2CCCC2(C)C(=O)NCC(C)C)cc1OC (stereo unspecified) | 3.2 | -0.9
CCn1nccc1NC(=O)C1c2ccccc2Oc2ccccc21 | -0.9 | 0.9
CNS(=O)(=O)CCCN1CCN(CCC(C)C)CC1 | 16.8 | 13.1
COc1ccc(CCNC[C@@H](O)c2ccc(O)cc2)cc1OC | 2.0 | 5.2
Fc1cccc(C2c3cccn3CCCN2Cc2ccncc2)c1 (stereo unspecified) | 15.9 | 16.3
CCCS(=O)(=O)N1CCOC(CCCC(C)C)C1 (stereo unspecified) | 13.0 | 1.9
O=C(CCC1CCN(Cc2nc3ccccc3s2)CC1)NCC1CCCO1 (stereo unspecified) | 4.4&-3.9 | 1.5&-4.5
Cn1ncnc1CS(=O)(=O)c1n[nH]c(CCC2CCCC2)n1 | -3.9 | -3.9
O=c1c2ccccc2nc(SCc2ccc(-n3cccn3)cc2)n1C1CC1 | -11.0 | -8.1
CC(C)c1nnc(-c2cc3ccccc3n2CC(=O)Nc2ccc(C(N)=O)cc2)o1 | -0.2 | -0.3
OCCCn1ccnc1-c1ccccc1OCc1ccccc1 | 9.7 | 3.0
S=c1nc(CCc2nc(=S)[nH][nH]2)[nH][nH]1 | 8.8 | 6.3
CCc1nc(SCC(=O)NCCc2ccccc2)c2oc3ccccc3c2n1 | -5.4 | -9.4
c1ccc(-n2cc(CNCC3COc4ccccc4O3)cn2)cc1 (stereo unspecified) | -5.2 | -6.0
Nc1cc(=O)[nH]c(SCC(=O)NCCN2C(=O)CSC2=O)n1 | 1.7 | 0.7
O=C(O)CN1C(=O)/C(=C/c2cccc(OC(=O)c3ccco3)c2)SC1=S | -3.6 | -8.7
O=C(CSc1nc2c(cnn2CCO)c(=O)[nH]1)N1CCc2ccccc21 | 2.8 | 4.4
O=C1NCC2(CCCN(C(=O)c3cnc(Nc4ccccc4)nc3)C2)O1 (stereo unspecified) | 7.6 | 3.4
CC1CN(C(c2ccccc2Cl)C2Sc3nc(-c4ccco4)nn3C2=O)CC(C)O1 (stereo unspecified) | -3.2 | -3.7
C=CCN(C(=O)Cc1cc(F)ccc1C)C1(C)CCS(=O)(=O)C1 (stereo unspecified) | -5.1 | -6.8
C[C@@H]1[C@H]2C[C@@H](C[C@H]1NC(=O)c1ccc(CSc3nnc4ccccn34)cc1)C2(C)C | -1.7 | -12.5
O=C(c1csc(COc2cc(Cl)ccc2Cl)n1)N1CCOCC1 | 10.3 | 12.2
Cc1noc(-c2ccc(C(=O)NC3=NCCS3)cc2)n1 | 7.6 | 10.5
O=C(C1CCCCC1)N1CCN(Cc2cc3n(n2)CCCNC3)CC1 | 6.6 | 4.6
CCCSc1ncnc2sc3c(c12)CCC(C)C3 (stereo unspecified) | 3.2 | -0.3
Cc1cn2c3c(=O)n(CCCO)c(=O)n(C)c3nc2n1-c1ccc(N(C)C)cc1 | 0.8 | 7.0
CCCCn1c(O)c(N=NC(=S)Nc2ccccc2[N+](=O)[O-])c2ccccc21 | -4.0 | -8.3
CCOC(=O)c1c(N=Cc2nc(-c3ccccc3)oc2O)sc2c1CCCC2 | -2.8 | -10.8
COCc1nc(N2CCCC(c3nc(C(C)C)no3)C2)c2cnn(C)c2n1 (stereo unspecified) | 8.1 | 4.1
COCC(=O)Nc1ccc(N(C)C)c(CN(CC(C)C)C(=O)CC(C)(C)C)c1 | 16.7 | 16.2
COc1ccc2c(C)cc(Nc3cc(F)ccc3C)nc2c1 | -3.7 | -5.0
Cc1cc(C)c(C)c(OCCC(=O)NCc2nnc3n2CCCC3)c1 | 4.3 | 1.4
CC(C)(C)NC(=O)C1CSCN1C(=O)c1ccn(-c2ccccc2)n1 (stereo unspecified) | 2.1 | 0.0
NC(=O)c1cccnc1N1CCC(CO)(Cc2ccccc2)CC1 | 2.0 | -0.6
Cc1ccc(C)c(S(=O)(=O)CCN2CCNC(=O)CC2)c1 | 2.2 | -1.1
CC(c1nc2c(s1)CCCC2)n1cc2ncccc2c1O (stereo unspecified) | 0.7 | -7.5
CN1CCC2(CC1)N=C(c1ccccc1)C(=S)N2C(=O)c1ccc(Cl)cc1 | -6.4 | -10.8
COc1cccc(NC(=O)CCN2C(=O)c3ccccc3C2=O)c1 | 2.5 | -3.9
CC1(C)CC(C(=O)N2CCc3c(c(C(=O)O)nn3CC3CC3)C2)CCO1 (stereo unspecified) | -5.6 | -6.7
CCNC(=O)C(C)Sc1ncnc2sc(C)c(C)c12 (stereo unspecified) | 10.6 | 13.1
CN(C(=O)COc1nncc2ccccc12)C1CCCCC1 | 8.9 | 3.2
CC1CN(C(=O)c2cc(-c3ccccc3)n[nH]2)CCO1 (stereo unspecified) | -0.9 | 0.2
COc1ccc(CCNC(=O)N2CCN3CCN(C)CC3C2)cc1 (stereo unspecified) | -0.2 | -1.9
COc1ccc(-c2nc(CN3CCC(Oc4cccc(Cl)c4)CC3)c(C)o2)cc1OC | 6.4 | 3.3
COc1cccc(CC(=O)N2CCN(c3ncccc3NC(=O)c3ccc4c(c3)OCO4)CC2)c1 | 2.9 | 1.0
